# Bioassay records as filed in PubChem.
# HTT prom inh – Primary qHTS for Identification of Small Molecule Inhibitors of Huntingtin Promoter Activity; HEK293 HTT promoter firefly luciferase reporter (activity 0% = vehicle and -100% = no light), 24 h; Potency, µM (highest dose often 57.5 µM), inactives show at the highest dose activity change, negative = inhibition, most hits filed as inhibitors; 0.93% of 48,000 active; active = well fitted inhibition curve with a large enough effect; inconclusive = small, poorly fitted or top-dose-only effect; inactive = no such curve, though single readings can be large or run the other way; note: nearly all actives have a fitted effect of over 50% in size
#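 HEK293 cells carrying firefly luciferase reporters were seeded at 2,500 per well in Opti-MEM and cultured for 24 h. They were then treated with compounds at up to 57.5 uM final for 24 h at 37 degrees C before Dual-Glo luminescence readout.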
# PMP22 txn prim – Cell-based coincidence reporter assay to measure PMP22 gene transcription in S16 Pmp22-F2sN cells - Primary screen. S16 Pmp22-F2sN Schwann cells (luciferase reporters placed in the Pmp22 gene), FLuc/NLuc coincidence luminescence, 24 h. Potency, µM (titrated, usually from 57.5 µM), for inactives: at the highest dose activity change, negative = inhibition, most hits filed as inhibitors. 2% of 43,000 active; active = clear falling dose curves in both reporters; inconclusive = both reporters move, but less clearly or upward; inactive = either reporter flat; the % is the NLuc reporter signal; note: % is set by controls: 0 for no effect and ±100 for the full control effect; some results filed as inactive show a strong effect at the top dose
#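 Reporter cells (S16 Pmp22-F2sN, 500–1,000 per well) exposed to compounds for 24 h, 37C, 5% CO2; lysis with FLuc read after 10 min, then Stop&Glo and NLuc read after 10 min.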
# * hit, by the source's call; ? = inconclusive; nt = no result given; [ ] = another dose, or the depositor's remark. Potency is the fitted concentration of half-maximal effect. No enrichment for hits; overall some 2.4% were active at least once.
SMILES,HTT prom inh,PMP22 txn prim
O=C(NCC(c1cccnc1)N1CCOCC1)C(=O)Nc1ccc(F)cc1 (stereo not drawn),29%,5%
CCOc1ccc(CC(=O)Nc2cccc(-c3nc4cccnc4s3)c2C)cc1,-11%,-22%
CNC(=O)C1CCC(Cn2c(=O)c3sccc3n(CC(=O)N3CCCC3)c2=O)CC1 (stereo not drawn),-1%,?
CC(C)(C)OC(=O)N1CCC(c2c(C(=O)NCc3ccccc3)cnn2-c2cccc(F)c2)CC1,?,-26%
COc1cccc(C(=O)N(Cc2ccc(C)o2)C2CCS(=O)(=O)C2)c1 (stereo not drawn),-7%,-10%
N#Cc1cc2c(=O)n3ccccc3nc2n(-c2nnc(SCc3ccccc3F)s2)c1=O,-7%,-16%
CCOC(=O)c1ccccc1NC(=O)NCc1c(-n2cccc2)sc2c1CCCC2,-27%,-5%
Cc1cc(C)cc(N(CC(=O)NCc2ccccc2Cl)S(=O)(=O)c2c(C)noc2C)c1,-18%,-11%
CCc1ccccc1NC(=O)Nc1ccc2c(c1)N(CC)C(=O)c1ccccc1S2,?,?
CCOc1ccccc1CN1CCc2nc(N3CCN(c4ccccc4F)CC3)ncc2C1,14µM*,-27%
CC(=O)c1ccc(N2CCN(C(=O)CCc3nnc4n(C)c(=O)c5sccc5n34)CC2)cc1,-19%,12%
CC(C)c1nn2c(=O)cc(COC(=O)c3ccc(NC(=O)COc4ccccc4)cc3)nc2s1,-11%,7%
O=C(COc1ccc(F)cc1)Nc1ccc(Cl)c(-c2nc3ccccc3[nH]2)c1,-28%,5%
COc1ccc(NC(=O)c2ccc3c(c2)N(Cc2cccc(Cl)c2)C(=O)c2ccccc2S3=O)cc1Cl (stereo not drawn),-21%,-18%
CCCCN(C)CCCNC(=O)C1CCN(S(=O)(=O)CCC)CC1,14%,-30%
Cc1c(Cl)cccc1NC(=O)CSc1ccc(-c2ccccn2)nn1,-13%,-21%
COc1cc(-c2noc(-c3cc(C)[nH]n3)n2)cc(OC)c1OC,77%[activator],-17%
Cc1ccccc1NS(=O)(=O)c1nnc(NC(=O)c2ccccc2C)s1,-3%,-33%
CCCCOC(=O)c1ccc(NC(=O)c2cnc3ccc(C)cn3c2=O)cc1,-20%,10%
O=C(NNc1ncnc2c1cnn2-c1ccccc1)c1ccccc1,4%,?
Cc1cc(C)n(-c2nc3ccccc3nc2Nc2cccc(C(=O)NCCc3ccccc3)c2)n1,-6%,18%
CCC(C)n1c(SCC(=O)Nc2ccccc2C(=O)OC)nc2ccsc2c1=O (stereo not drawn),-7%,?
COc1ccc2nc(NC(=O)c3cc(=O)c4cc(C)cc(C)c4o3)sc2c1,-9%,-21%
CC(Sc1nnc2ccc3ccccc3n12)C(=O)Nc1ccc(Cl)cc1 (stereo not drawn),0%,3%
O=C(NCCCO)C(=O)Nc1c2c(nn1-c1ccccc1)CSC2,-14%,-13%
# Carrying on:
SMILES,HTT prom inh,PMP22 txn prim
Cc1ccc(CNC(=O)c2cc3sccc3n2Cc2ccc(Cl)cc2)cc1,-10%,-49%
COc1cccc(CNC(=O)Nc2ccc3c(c2)N(C)C(=O)c2ccccc2S3)c1,?,18µM*
CC(C)(C)NC(=O)c1oc2ccccc2c1NC(=O)c1ccccc1F,-15%,-5%
CC(=O)N1N=C(c2ccc(C)cc2)CC1c1cn(-c2ccccc2)nc1-c1cccs1 (stereo not drawn),-10%,?
CCOc1ccccc1NC(=O)CN1C(=O)CC(c2ccc(OC)c(OC)c2)Sc2ccccc21 (stereo not drawn),-30%,?
CC1CCN(c2ccc(NC(=O)c3cccc(Cl)c3)cc2C(=O)O)CC1,-9%,19%
O=C(NCc1ccccc1)c1ccc2c(c1)N(Cc1cccc(Cl)c1)C(=O)c1ccccc1S2(=O)=O,-13%,-16%
COc1ccc(Nc2cc(C(=O)NC3CCCC3)c3ccccc3n2)c(OC)c1,-3%,-23%
CCN(Cc1ccccc1)C(=O)C1CCC(CNS(=O)(=O)c2ccc3c(c2)CCCC(=O)N3)CC1 (stereo not drawn),?,?
Cc1c(C(=O)Nc2ccc(Br)cc2F)sc2ncnc(N(C)C3CCCCC3)c12,-12%,-24%
O=c1c2cn[nH]c2nc(SCc2cccc(Br)c2)n1-c1ccc(Cl)cc1,?,-26%
Cc1ccc(Cl)cc1-n1nnc(-c2nc(-c3ccc4c(c3)OCO4)no2)c1C,23%,-89%
COC(=O)c1cc(S(=O)(=O)NCC2CCN(Cc3cccc(F)c3)CC2)c[nH]1,-15%,-12%
CCOc1ccccc1NC(=O)CCS(=O)(=O)c1ccc(OC)cc1,1%,-4%
COc1ccc2c(c1)c(=O)c(C(=O)c1ccccc1)cn2CC(=O)Nc1ccc2c(c1)OCO2,-17%,-9%
COc1ccc(N2CCN(S(=O)(=O)c3ccc(OC)c(-c4noc(C)n4)c3)CC2)cc1,5%,-5%
O=C(NCc1ccccc1Cl)C1CCCN(c2nc3ccccc3n3cccc23)C1 (stereo not drawn),-24%,?
CCOc1ccc(CCNC(=O)c2cc3c(s2)-c2ccccc2OC3)cc1OCC,?,-19%
CCOc1ccc(C2C(C(=O)Nc3ccccc3)=C(C)Nc3nc(-c4ccccc4)nn32)cc1OC (stereo not drawn),-7%,33%
CCS(=O)(=O)c1c(S(=O)(=O)CC)c2cc(C(C)(C)C)ccn2c1C(=O)c1ccc(F)cc1,-24%,-20%
Cn1c(=O)c2c(c3ccccc31)OC(=O)CC2c1cccc(F)c1 (stereo not drawn),-18%,24%
O=C(NC1CC(=O)N(c2ccc(F)cc2)C1)c1ccc(S(=O)(=O)N2CCCC2)cc1 (stereo not drawn),-13%,-14%
C=C1C(=O)OC(CCCCCCCC)C1C(=O)O (stereo not drawn),-24%,nt
O=C(c1cn(CCOc2ccccc2F)c2ccccc12)C1CCCCC1,-17%,-14%
CCc1cccc(CC)c1NC(=O)c1ccc2c(c1)CCN2S(=O)(=O)c1ccccc1,-26%,11%

# 4 entries from above in a different format.
smiles | HTT prom inh | PMP22 txn prim
O=C(c1cn(CCOc2ccccc2F)c2ccccc12)C1CCCCC1 | -17% | -14%
O=C(NC1CC(=O)N(c2ccc(F)cc2)C1)c1ccc(S(=O)(=O)N2CCCC2)cc1 (stereo not drawn) | -13% | -14%
CCN(Cc1ccccc1)C(=O)C1CCC(CNS(=O)(=O)c2ccc3c(c2)CCCC(=O)N3)CC1 (stereo not drawn) | ? | ?
COC(=O)c1cc(S(=O)(=O)NCC2CCN(Cc3cccc(F)c3)CC2)c[nH]1 | -15% | -12%

# (cont.)
SMILES,HTT prom inh,PMP22 txn prim
COc1ccc(-c2nc(CSCC(=O)NCCc3ccccc3)c(C)o2)cc1,?,2%
CC(NC(=O)CN1C(=O)COc2ccc(S(=O)(=O)N3CCCCCC3)cc21)c1ccccc1 (stereo not drawn),-18%,-18%
CCc1ccccc1NC(=O)c1nc2nc(C)cc(C(F)F)n2n1,-8%,-23%
Cc1ccc(NCc2nc3ccccc3n2CCOc2ccccc2)cc1,-4%,?
CCOC(=O)c1ccc(N2C(=O)c3n[nH]c(-c4ccco4)c3C2c2ccccc2OC)cc1 (stereo not drawn),?,?
Cc1ccc(-n2c(=O)[nH]c3sc4c(c3c2=O)CCNC4)cc1C,-16%,-1%
COc1cccc(CNC(=O)C2CCN(S(=O)(=O)c3ccc4c(ccn4C)c3)CC2)c1,-25%,-16%
CCOc1ccc(OCC)c(NS(=O)(=O)c2c(C(=O)N3CCC(C)CC3)c(C)n(C)c2C)c1,-16%,50%
Cc1ccc(S(=O)(=O)n2nc(-c3ccco3)nc2NCc2ccccc2Cl)cc1,-2%,?
COc1ccc(NC(=O)CC(C)S(=O)(=O)c2ccc3c(c2)NC(=O)CO3)cc1OC (stereo not drawn),-20%,8%
Cc1ccc(C(C)C)c(OCC(=O)Nc2cccc(-c3nc4ncccc4o3)c2)c1,-21%,?
COC(=O)c1ccccc1NC(=O)CCC(=O)N1CCOc2ccccc21,-22%,15%
CCOC(=O)c1ccc(NC(=O)CC2C(=O)N(c3ccc(F)cc3)C(=O)N2Cc2ccc(C)cc2)cc1 (stereo not drawn),?,?
Cc1nnc2c(Nc3cccc(O)c3)nc3ccccc3n12,16%,?
O=C(Nc1ccc2nc(SCC(=O)N3CCCC3)sc2c1)c1cccc(Cl)c1,-14%,-32%
Cc1cc(C(F)(F)F)c2c(N)c(C(=O)Nc3c(Cl)cccc3Cl)sc2n1,?,5%
Cc1ccc(-c2nnc(SCCOc3ccccc3)o2)cc1,16%,-1%
CCN(Cc1ccccc1)C(=O)c1cc2c(s1)-c1c(C)cccc1OC2,-2%,-10%
Cc1nnc(NC(=O)CSc2nc3c([nH]c4ccccc43)c(=O)n2-c2ccc(Cl)cc2)s1,-21%,?
CCCCN(C)c1nnc(NC(=O)Nc2ccc(Br)c(C)c2)s1,-16%,-5%
Cc1ccccc1C(=O)Nc1ccc2nc(SCC(=O)N(C)c3ccccc3)sc2c1,?,?
CC(=O)c1c(C)n(-c2cccc(C)c2)c2ccc(OC(=O)COc3ccccc3)cc12,-7%,?
Cc1cccc(NC2=CC(c3cccc(Br)c3)N(c3cccc(C)c3)C2=O)c1 (stereo not drawn),-8%,-2%
Cc1ccc(-c2ccccc2C#N)cc1,5%,nt
Cc1ccc(OCCn2c(COc3ccc(Cl)cc3)nc3ccccc32)cc1,?,?

# Nothing new here: six of the compounds above.
SMILES,HTT prom inh,PMP22 txn prim
O=C(NCC(c1cccnc1)N1CCOCC1)C(=O)Nc1ccc(F)cc1 (stereo not drawn),29%,5%
CCOc1ccc(CC(=O)Nc2cccc(-c3nc4cccnc4s3)c2C)cc1,-11%,-22%
CNC(=O)C1CCC(Cn2c(=O)c3sccc3n(CC(=O)N3CCCC3)c2=O)CC1 (stereo not drawn),-1%,?
CC(C)(C)OC(=O)N1CCC(c2c(C(=O)NCc3ccccc3)cnn2-c2cccc(F)c2)CC1,?,-26%
COc1cccc(C(=O)N(Cc2ccc(C)o2)C2CCS(=O)(=O)C2)c1 (stereo not drawn),-7%,-10%
N#Cc1cc2c(=O)n3ccccc3nc2n(-c2nnc(SCc3ccccc3F)s2)c1=O,-7%,-16%

# Later entries
SMILES,HTT prom inh,PMP22 txn prim
Cc1nc2ccc(S(=O)(=O)N(CC(=O)Nc3ccc(Cl)cc3)Cc3ccccc3)cc2s1,?,-16%
Cc1ccc(S(=O)(=O)c2nnn3c2nc(NCCc2ccccc2)c2sccc23)cc1,?,-55%
O=C(NCCS(=O)(=O)N1CCN(c2ccc(F)cc2)CC1)C(c1ccccc1)c1ccccc1,-25%,17%
N#Cc1c[nH]n2c(NC3CCCC3)c(-c3cccc(Br)c3)nc12,-20%,-64%
CCC(CC)C(=O)Nc1nnc(S(=O)(=O)N2CCCCCC2)s1,-15%,23%
O=C(O)CCCCC(=O)O,4%,nt
Cc1c(Cl)cccc1NC(=O)CCCn1nc(C)c2sc3ccccc3c2c1=O,-5%,-7%
Cn1cc(S(=O)(=O)N2CCCCCC2)cc1C(=O)NCc1ccc(F)cc1,-6%,0%
Cc1c(C(=O)Nc2ccc(-c3nc4cc(Cl)ccc4o3)cc2)oc2ccccc12,-8%,-5%
CCOc1ccc(C(=O)N2CCCCC2CCN2CCOCC2)cc1 (stereo not drawn),-5%,-2%
COc1cccc(CNC(=O)C2CCN(S(=O)(=O)N3CCC(C)CC3)CC2)c1,?,-5%
Cc1cccc2c1-c1sc(C(=O)Nc3ccccc3C(N)=O)cc1CO2,51%[activator],?
Cc1ccc(C)c(S(=O)(=O)c2nnn3c2nc(N2CCCC2)c2sccc23)c1,-20%,?
Cc1ccc(CSCC(=O)N2CCN(c3ccc(F)cc3)CC2)cc1,?,-1%
CCOc1ccccc1C(=O)NCC(c1cccs1)S(=O)(=O)c1ccc(F)c(C)c1 (stereo not drawn),-18%,?
Cc1ccc(NC(=O)CCCn2c(=O)c3cccn3c3ccccc32)c(C)c1,27%,?
CC(C)c1ccc(NS(=O)(=O)c2ccc3[nH]cc(C(=O)NC4CCCC4)c(=O)c3c2)cc1,8%,-18%
CN(C)C(=O)c1ccc(S(=O)(=O)NCc2ccc(Cl)cc2)s1,?,?
CCOc1ccc(NC(=O)c2oc3ccccc3c2NC(=O)Cc2ccc(F)cc2)cc1,-5%,-31%
CCCc1cnc2c(c1SCC(=O)Nc1ccccc1OCC)c(=O)n(C)c(=O)n2C,-17%,-23%
CCOc1ccccc1C(=O)N(Cc1cc(OC)c(OC)c(OC)c1)c1ccccn1,-8%,-8%
O=C(CN1C(=O)C2(SCC(=O)N2c2ccc(F)c(F)c2)c2ccccc21)Nc1ccccc1F (stereo not drawn),-14%,-18%
COc1ccccc1CNC(=O)CCc1c(C)c2cc3c(C)c(C)oc3cc2oc1=O,6%,-33%
COc1ccccc1CNC(=O)c1ccc(-c2nc(CS(=O)c3ccc(C)cc3)c(C)o2)cc1 (stereo not drawn),?,?
COc1ccc(C2C=C(c3ccc(Cl)cc3)Nc3nc(NC(=O)CCC(=O)O)nn32)cc1 (stereo not drawn),-4%,-1%
CCc1ccc(NC(=O)C2CCCN(S(=O)(=O)c3c(C)noc3/C=C/N(C)C)C2)cc1 (stereo not drawn),?,-24%
